TRPML1 agonist: human mucolipin-1 channel agonism. Q9GZU1. activation, % (concentration not given with the values). TRPML1-expressing cells, Ca2+ dye fluorescence, FDSS; host cell line not named in the record; reference of the full effect not given here. actives 0.12% (n = 410,000); in the data active = activation above about 50%; inconclusive = about 30% to 50%; inactive = below about 30%; further: 0% is about no effect; the text of the record puts the active cut at 80%
Target sequence (Q9GZU1 whole entry, looked up): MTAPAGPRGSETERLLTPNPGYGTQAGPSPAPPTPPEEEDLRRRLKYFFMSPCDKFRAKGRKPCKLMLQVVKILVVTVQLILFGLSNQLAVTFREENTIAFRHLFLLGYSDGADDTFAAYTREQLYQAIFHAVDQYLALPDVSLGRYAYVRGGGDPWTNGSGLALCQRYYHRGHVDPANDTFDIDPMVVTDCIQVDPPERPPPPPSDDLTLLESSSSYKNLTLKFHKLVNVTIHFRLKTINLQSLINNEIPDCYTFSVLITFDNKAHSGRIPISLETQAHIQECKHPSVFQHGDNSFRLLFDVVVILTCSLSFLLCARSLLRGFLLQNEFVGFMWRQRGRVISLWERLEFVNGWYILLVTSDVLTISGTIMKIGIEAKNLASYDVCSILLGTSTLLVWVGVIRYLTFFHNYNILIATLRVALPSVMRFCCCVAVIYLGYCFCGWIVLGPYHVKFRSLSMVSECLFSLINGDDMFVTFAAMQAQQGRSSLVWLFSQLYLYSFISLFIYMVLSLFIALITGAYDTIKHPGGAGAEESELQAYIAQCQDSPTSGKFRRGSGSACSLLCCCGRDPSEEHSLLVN
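Agonist activity was taken from a 110 s kinetic Ca2+ dye read on the FDSS after pinning compounds onto TRPML1-DL cells. The cells were seeded at 1,500/well with Tet inducer, incubated about 16 h, then dye-loaded at room temperature.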
gsp agonist: agonists of gsp mutant (McCune-Albright syndrome). gsp mutant cells, cAMP HTRF, 30 min; control for the full effect not named in the record. Potency, µM (highest dose often 76.9 µM), without a hit: at the highest dose activation (cAMP increase), most hits filed as activators. actives 0.13% (n = 340,000); active = well fitted activation curve with a large enough effect; inconclusive = small, poorly fitted or top-dose-only effect, or another doubt; inactive = no such curve, though single readings can be large or run the other way; cell line not stated here;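 further: phosphodiesterase inhibitor Ro 20-1724 added with compounds to block cAMP breakdown; potency means the concentration at half of the fitted maximal effect; nearly all actives have a fitted effect of over 60% in size; about a fifth of the inactives were tested at one dose only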
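Cells in DMEM/10% FBS with G418 were pretreated with compounds in DMSO plus […] (300 uM stock) for 30 min at 37C. cAMP was measured by HTRF (cAMP-d2 plus anti-cAMP antibody-K) after 30 min at room temperature.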
ClpP mod: qHTS Assay for Activators of ClpP | purified B. subtilis ClpP, FRET peptide cleavage, 20 min | Potency, µM (top dose mostly 57.5 µM), inactives show at the top dose activity change, negative = active | actives 1.9% (n = 340,000) | AID 651965, 2013; active = well fitted falling curve with a large enough effect; inconclusive = small, poorly fitted or top-dose-only effect; inactive = no such curve, though single readings can be large or run the other way; further: potency means the concentration at half of the fitted maximal effect; the source files actives as falling curves though it sought activators and does not explain the sign; nearly all actives have a fitted effect of over 65% in size; many hits overshoot -100%
Target sequence (P80244 whole entry, looked up): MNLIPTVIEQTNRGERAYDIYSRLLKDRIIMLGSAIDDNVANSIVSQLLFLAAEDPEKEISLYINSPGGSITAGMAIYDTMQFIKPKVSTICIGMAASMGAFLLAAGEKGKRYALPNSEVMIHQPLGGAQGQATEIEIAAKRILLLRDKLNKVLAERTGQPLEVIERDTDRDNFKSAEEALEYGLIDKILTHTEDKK
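ClpP 10 microg/mL final, pH 8 Tris/KCl buffer with BSA, glycerol, Tween-20; compound pinned in; FRET-FV substrate; RT 20 min; Ex320/Em430; ΔFRET vs ADEP 5.8 microM, DMSO, no enzyme.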
gsp antag: antagonizes gsp, the McCune-Albright syndrome mutation; gsp-mutant cells, cAMP HTRF, 30 min; control for the full effect not named in the record; Potency, µM (series often up to 76.9 µM), for inactives: at the highest dose activity change, negative = inhibition, hits mostly inhibitors; actives 0.4% (n = 340,000); AID 624288; active = falling curve of any shape with a large fitted effect; inconclusive = falling curve, mostly with a smaller effect; inactive = flat or rising curve; cell line not stated here;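 further: intracellular cAMP measured with PDE inhibitor Ro 20-1724 present during compound exposure; potency means the concentration at half of the fitted maximal effect; on the % scale 0 is the no-effect control and ±100 the full control effect; nearly all actives have a fitted effect of over 65% in size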
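Measurement of cellular cAMP by homogeneous time-resolved fluorescence following a 30 min compound exposure at 37C. The PDE inhibitor […] was present throughout; the assay buffer was DPBS with 0.05% BSA and 0.005% Tween 20.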
Menin MLL FP FL: displaces fluorescein MLL peptide from human menin. Fluorescence polarization, fluorescein-MLL peptide displacement from menin. FP activity change, % at 61.4 µM. 290,000 tested, under 10 active. AID 1766; inconclusive = falling polarisation curve, or a change in total fluorescence; inactive = total fluorescence flat and polarisation flat or rising; no compound was filed as active; the % refers to the polarisation; negative = inhibition;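 further: % of control where 0% means no effect; inhibitors lower the polarisation; unlabelled MLL peptide was the positive control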
TRPML1 inh: blocks the human TRPML1 channel; TRPML1-inducible cells, Ca2+ dye fluorescence, FDSS; active compounds read low; inhibition of EC80 agonist-evoked calcium signal; Q9GZU1; actives 0.02% (n = 390,000); AID 624415; activity change, negative = inhibition, % (concentration not given with the values); in the data active means activity change below about -50%; inconclusive means about -30% to -50%; inactive means above about -30%;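 further: stimulus is agonist 54-4 at its EC80 concentration; on the % scale 0 is the no-effect control and ±100 the full control effect; the text of the record puts the active cut at -80%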
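Tet-induced TRPML1-DL cells loaded with Ca8 no-wash calcium dye were read kinetically on FDSS. Compound addition was followed by EC80 agonist 54-4 (4 uM final); inhibition was read over 110 s.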
The depositor's hits bear a star; ? = inconclusive; nt = no result given; [ ] = dose if it differs, or a comment.

SMILES	TRPML1 agonist	gsp agonist	ClpP mod	gsp antag	Menin MLL FP FL	TRPML1 inh
Cc1cc(C(=O)Nn2c(C)nc3ccccc3c2=O)ccc1[N+](=O)[O-]	-0.8	29.2%	nt	1.8%	-0.4	37.5
CCCOc1cccc(NC(=O)OC2CCN(C)CC2)c1	0.8	-56.2%[inhibitor]	25.1µM*	7.6%	nt	4.7
Cc1cccc(N2CC(C(=O)OCC(=O)Nc3sccc3C(N)=O)CC2=O)c1C (configuration not stated)	2.5	?	nt	-2.2%	nt	15.2
Cc1cccnc1NC(=O)c1ccc(COc2ccccc2)o1	0.5	?	0.0%	-0.2%	nt	5.7
CCCn1c(N)c(C(=O)CSc2nc3ccccc3n2CCC#N)c(=O)n(C)c1=O	0.1	-21.9%	3.6%	13.6%	0.2	4.0
Cc1ccc(C(=O)c2cc3c(cc2N)OCCO3)cc1	2.0	-35.8%[inhibitor]	0.6%	0.2%	2.2	1.5
COC(CNC(=O)C1CC(=O)N(CCc2ccc(C)cc2)C1)OC (configuration not stated)	0.8	-0.9%	0.2%	10.9%	0.8	-2.9
CCNC(=S)N1CCC(C(=O)c2ccc3c(c2)OCCO3)CC1	-0.3	16.3%	-2.9%	14.3%	-1.3	-4.4
O=S(=O)(Nc1cccc(-c2nnco2)c1)c1ccc(Cl)cc1	-1.2	18.8%	-0.2%	-11.8%	8.0	0.3
Cc1ccc(NS(=O)(=O)c2ccc(C(=O)NCC(c3ccco3)N(C)C)cc2)cc1 (configuration not stated)	8.6	-33.9%[inhibitor]	-4.4%	7.5%	nt	-5.7
CC(C)(C)[C@H]1C=C(C(=O)NC2CC2)O[C@@H](OCCCCO)C1	-0.8	-25.9%	0.1%	2.2%	5.9	0.0
CN(C)CCNC(=O)c1ccc(-n2c(-c3ccccc3)cc3c2CCCC3)cc1	1.1	nt	-6.7%	nt	nt	-25.1
O=C(N/N=C/c1cnc2ccccc2n1)c1cccc(F)c1	-0.8	?	1.8%	-1.6%	5.2	-3.9
COc1ccc(NS(=O)(=O)c2ccc(C(=O)Nc3c(C)n(C)n(-c4ccccc4)c3=O)cc2)cc1	-0.3	-21.6%[15.4 µM]	-2.6%	3.6%	nt	-2.2
CCOC(CCn1ccc(O)c(Cc2ccc(Cl)cc2)c1=O)OCC	-0.8	4.4%	-1.4%	-5.3%	0.9	-4.2
CCOC(=O)NC(=O)/C(C=Nc1ccc(Cl)cc1)=C(\C)O	0.4	-6.1%[15.4 µM]	nt	-0.8%	-1.0	-9.3
COc1ccc(-c2noc(CN(C)C3CCOCC3)n2)cc1	-0.5	4.9%	nt	6.8%	-0.7	4.8
Cc1cccc(NC(=O)CN2C(=O)c3cccc4cccc2c34)c1C	1.4	nt	14.4%	nt	nt	1.5
CN1CCN(C2(CNC(=O)COc3ccc(C(C)(C)C)cc3)CCCCC2)CC1	0.9	nt	0.1%	nt	nt	16.1
Cc1cc(C(=O)COC(=O)C2=NNC(=O)CC2)c(C)n1-c1ccccc1	3.2	-19.3%	0.7%	1.0%	2.4	-6.1
CCOC(=O)C1CCN(C(=O)COc2ccc(N(C)S(=O)(=O)c3cccs3)cc2)CC1	-0.6	22.1%	1.7%	-5.5%	3.2	-21.9
Cc1ccc(C)c(OCCCC(=O)Nc2nccs2)c1	-0.1	-31.3%[inhibitor]	-1.1%	-5.1%	0.1	-11.1
CCC(=O)Nc1ccc(C(=O)CSc2nnc(-c3ccc(O)cc3)n2CC2CCCO2)cc1OC (configuration not stated)	-0.1	1.3%	0.0%	-2.6%	-0.8	12.5
O=C(COc1ccc(CNC[C@H]2O[C@@H](n3ccc(=O)[nH]c3=O)[C@H](O)[C@@H]2O)cc1)Nc1ccccn1	-0.2	nt	-1.2%	nt	nt	1.6
C#CC1(NC(=O)NC(C)C)CCCCC1	-0.6	4.9%	-1.1%	8.4%	-0.3	15.9
CC(C)COCC1CC2(CC(C)C(=O)CC2=O)C(=O)O1 (configuration not stated)	3.6	7.0%	-3.1%	-0.4%	3.1	-1.3
C=C(C)C1CC=C(CN2CCN(Cc3ccccc3)CC2)CC1 (configuration not stated)	nt	-0.8%	-0.5%	8.3%	1.6	nt
Cc1ccc(C(=O)Nc2cccnc2Oc2ccc(Cl)cc2)cc1	3.2	4.7%	nt	-2.5%	4.0	18.6
CCOC(=O)/C=C/C(=O)Nc1ccccc1-c1ccccc1NC(=O)/C=C/C(=O)OCC	0.3	4.8%	-1.4%	3.0%	0.4	1.5
Cc1cccc(NC(=O)COC(=O)CN2C(=O)c3ccccc3C2=O)c1	-0.8	-53.4%[inhibitor]	0.6%	nt	nt	4.3
CCOC(=O)/C(C#N)=C/c1c(N2CCN(c3ccccc3)CC2)nc2ccccn2c1=O	1.8	15.8%	-0.8%	-24.9%	2.1	-6.4
COc1ccc(NC(=O)c2cc(C)no2)cc1Cl	0.2	-37.4%[inhibitor]	nt	-6.3%	2.7	5.8
Cc1cc(C(=O)Nc2ccon2)ccc1[N+](=O)[O-]	0.4	-1.0%[15.4 µM]	nt	10.8%	nt	-8.2
O=C(CSCc1nc2ccccc2[nH]1)N1CCN(c2ccc(F)cc2)CC1	0.9	3.6%	-4.4%	7.7%	4.6	11.8
CCCCNc1nc(Oc2ccc(=O)n(C)n2)nc(N(C)C)n1	1.8	nt	-1.3%	nt	nt	11.1
Cc1ccc(NC(=O)c2cc3ccccc3cc2O)cc1	nt	?	1.6%	-8.8%	8.0	nt
O=C(CC1C(=O)NCCN1Cc1ccccc1)NCCN1CCCCC1=O (configuration not stated)	0.1	15.2%	-8.4%	11.9%	nt	36.5
Cc1ccc(/C=N/NC(=O)Nc2ccccc2)o1	0.3	-4.6%	-2.3%	-7.8%	0.3	31.7
COc1cccc(NC(=O)c2c(F)cccc2F)c1	-0.5	-22.0%	2.6%	5.6%	nt	40.7
CC(Oc1ccc(-n2cnnn2)cc1)C(=O)O (configuration not stated)	-0.3	-4.7%[15.4 µM]	nt	14.1%	-4.3	-6.9
Cn1c(SCC(=O)Nc2cccc(O)c2)nnc1-c1ccc(S(=O)(=O)N2CCOCC2)cc1	0.6	-10.7%	-1.8%	8.8%	1.0	6.0
COc1ccc(Cc2nc3ccc(C(=O)NCc4cc(Br)ccc4OC)cc3o2)cc1	0.8	nt	-2.0%	nt	nt	10.1
O=C(/C=C/c1ccccc1)NNC(=O)C1CC1	0.0	4.3%	-0.4%	8.8%	-0.8	3.1
COc1ccccc1OCC(=O)NCc1n[nH]c(=O)c2ccccc12	0.6	-2.9%[15.4 µM]	-0.4%	-14.6%	nt	-3.8
O=S(=O)(Nc1cccc(-c2ccc(N3CCOCC3)nn2)c1)c1ccccc1C(F)(F)F	-0.2	nt	-2.6%	nt	nt	11.3
FC(F)(F)c1cc(Cl)c2nc(-c3ccccc3)cn2c1	-0.4	18.5%	-13.8%	-1.3%	6.6	-9.5
Cc1ccc(NC(=O)C2C3C=CC4(O3)C2C(=O)N(CCCN2CCCCC2)C4C(=O)NC2CCCCC2)cc1Cl (configuration not stated)	0.0	?	nt	7.2%	-0.7	-14.6
Oc1ccc(/C=N\Nc2nncc(-c3ccccc3)n2)cc1	nt	0.2%	-1.8%	-7.9%	-2.4	nt
Cc1ccnc2nc(C(=O)Nc3cc(Cl)ccc3N3CCOCC3)nn12	-0.4	?	-6.0%	6.4%	3.2	3.6
O=C(Oc1ccccc1)Oc1ccc2c(c1)oc(=O)c1ccccc12	-1.4	?	-4.6%	22.8%	1.3	-5.8
CCC(NC(=O)CNC(=O)CNC(=O)c1ccc(Cl)cc1Cl)c1ccc(C)cc1 (configuration not stated)	0.2	?	0.4%	-10.3%	0.9	2.0
Cc1cc2c(n1-c1ccc(C(=O)NCc3cccc(Br)c3)cc1)CCC(C)C2 (configuration not stated)	3.0	nt	-14.0%	nt	nt	-23.3
O=C1CCCCc2sc(Br)c([N+](=O)[O-])c2N1	0.4	21.3%[15.4 µM]	nt	-17.5%	3.7	-1.6
COc1ccc(C(=O)NCCNC(=O)c2ccc(OC)cc2)cc1	1.0	19.8%	nt	0.7%	nt	-8.6
COc1ccc(-n2c(=O)c3c4c(sc3n(CC(=O)NCc3ccco3)c2=O)CCC4)c(OC)c1	-0.3	0.6%	-2.3%	1.0%	8.6	1.6
CC(=O)COC(=O)c1ccc2noc(-c3ccccc3)c2c1	0.9	6.3%[15.4 µM]	nt	?	2.1	23.8
Cn1c2ccccc2c(=O)c2cc(C#Cc3ccc(N)cc3)ccc21	-0.8	14.9%	-4.3%	2.9%	-1.7	-10.5
CCOc1ccc(-c2csc(Cn3c(CN4CCN(C)CC4)nc4ccccc4c3=O)n2)cc1	2.4	-20.8%	1.5%	5.8%	3.9	0.7
COc1cc(/C=N/NC(=O)c2cc(-c3cccs3)nc3ccccc23)ccc1O	-0.3	-10.7%	-20.6%	-20.6%	1.5	14.8
COc1ccccc1C(=O)Oc1ccc(C(c2c(C)[nH][nH]c2=O)c2c(C)[nH][nH]c2=O)cc1	-0.5	nt	-0.5%	nt	nt	-3.4

Next part
SMILES	TRPML1 agonist	gsp agonist	ClpP mod	gsp antag	Menin MLL FP FL	TRPML1 inh
CN1C(C(=O)NCc2ccccc2)CC2Cn3c(nc4ccccc43)C21 (configuration not stated)	0.5	nt	-3.0%	7.7%	6.0	23.1
CC1=C(C(=O)OCc2ccccc2)C(c2cccc(Cl)c2Cl)CC(=O)N1 (configuration not stated)	-0.3	nt	-1.7%	nt	nt	-2.6
Cc1ccccc1NC(=O)c1c2c(nc3ccccc13)CCC2	0.6	-0.3%[15.4 µM]	nt	5.4%	-2.8	-10.5
CC(C)(C)NC(=S)N1CCC2CC1c1c(Cl)cccc12 (configuration not stated)	-0.4	-39.1%	0.4%	nt	nt	6.8
Cc1sc2ccc3sccc3c2[n+]1C	3.4	-48.8%[inhibitor]	nt	0.9%	1.3	-5.2
COc1ccc(C(=O)N/N=C/c2sc(N3CCOCC3)nc2-c2ccccc2)cc1OC	-1.3	-5.0%[15.4 µM]	14.0%	-15.2%	5.3	-1.7
COc1ccc(C2(O)CC3CCC(C2)N3c2nc(C)cc(C)c2C#N)cc1 (configuration not stated)	2.1	4.6%	28.2µM*	3.9%	5.2	3.8
O=C(OCC(F)(F)F)c1cccc(COc2ccc3ccccc3c2)c1	1.1	-20.0%	-1.8%	-2.4%	0.5	4.0
O=C(Nc1ccc(F)c(Cl)c1)c1ccccc1NC(=O)C1CCCCC1C(=O)O (configuration not stated)	1.3	-9.4%	-6.4%	-10.3%	nt	-24.9
Cc1nc(CNS(=O)(=O)c2ccc(Oc3ccccc3)cc2)cs1	0.3	-59.2%[inhibitor]	0.4%	-35.5%	-0.7	7.7
O=C(COc1ccc2ccccc2c1Br)N1CCCC1	1.0	?	-2.5%	1.5%	nt	9.3
O=C(Nc1ccc(Cl)cn1)c1ccc([N+](=O)[O-])o1	-0.8	29.4%[15.4 µM]	nt	9.5%	-4.8	13.4
